KCNQ2 block: KCNQ2 channel blockers in CHO-K1 cells – cell-based, FluxOR thallium flux, B-score, primary screen (AID 2156). actives 1.1% (n = 310,000). 20 min; hits give low values; only compounds with negative scores are shown here; some inactives read as strong as hits. B-score at 10 µM;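 active = fluorescence ratio B-score at most minus 3 library SDs, with starting brightness B-score within 2 library SDs, cut at about -5.5 in these data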
Target sequence (O88943 whole entry, looked up): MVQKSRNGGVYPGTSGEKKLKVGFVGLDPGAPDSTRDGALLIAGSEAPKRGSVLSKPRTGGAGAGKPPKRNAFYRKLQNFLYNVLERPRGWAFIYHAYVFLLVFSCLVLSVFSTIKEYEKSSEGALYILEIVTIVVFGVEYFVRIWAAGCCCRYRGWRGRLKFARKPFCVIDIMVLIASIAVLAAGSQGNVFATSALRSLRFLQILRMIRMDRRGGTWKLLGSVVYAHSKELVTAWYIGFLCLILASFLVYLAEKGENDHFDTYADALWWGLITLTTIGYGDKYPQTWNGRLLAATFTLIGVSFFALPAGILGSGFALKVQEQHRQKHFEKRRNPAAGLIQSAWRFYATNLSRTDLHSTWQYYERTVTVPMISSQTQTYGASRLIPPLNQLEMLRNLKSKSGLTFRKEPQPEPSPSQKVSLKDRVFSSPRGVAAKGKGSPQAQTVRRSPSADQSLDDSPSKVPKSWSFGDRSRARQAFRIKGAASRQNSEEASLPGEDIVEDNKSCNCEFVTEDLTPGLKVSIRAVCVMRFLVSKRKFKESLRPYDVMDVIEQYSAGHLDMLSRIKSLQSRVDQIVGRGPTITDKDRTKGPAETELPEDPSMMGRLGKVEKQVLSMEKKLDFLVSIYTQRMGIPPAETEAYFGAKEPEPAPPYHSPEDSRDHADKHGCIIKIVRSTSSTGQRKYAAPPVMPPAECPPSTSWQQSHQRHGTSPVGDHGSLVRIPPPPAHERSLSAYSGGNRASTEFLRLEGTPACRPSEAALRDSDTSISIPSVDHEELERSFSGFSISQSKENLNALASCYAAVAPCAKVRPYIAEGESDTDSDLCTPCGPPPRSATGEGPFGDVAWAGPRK
KCNQ2 block baseline: also measured in KCNQ2 block; calls as there; B-score; measured here: initial fluorescence intensity artifact check;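 brightness before thallium and not channel activity; 0 = typical well and far values either way flag optical interference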
The depositor's hits bear a star; i = inactive. These rows are one share of the data; count on the stated rates, not on these rows.

The opening 13 entries, to show the layout:
KCNQ2 block	KCNQ2 block baseline	Molecule
i	-1.1	CCOc1cc2[nH]c(=S)n(Cc3ccc(C(=O)O)cc3)c(=O)c2cc1OCC
i	-1.4	COc1ccc(/C=N/NC(=O)c2cc(OC)c(OC)c(OC)c2)cc1CN1CCc2cc(OC)c(OC)cc2C1C (stereo not drawn)
i	-0.01	CCOC(=O)c1c(C)[nH]c(C(=O)COC(=O)c2[nH]c(C)c(C(C)=O)c2C)c1C
i	-0.02	O=C(CCC1CCCN(Cc2ccc3c(c2)CCO3)C1)NCc1ccc(F)c(F)c1 (stereo not drawn)
i	-2.4	C(CCCN1CCCCC1)CCN1CCCCC1
i	-1.5	O=C(C1=C(O)C(=O)N(CCN2CCOCC2)C1c1cccc([N+](=O)[O-])c1)c1cccs1 (stereo not drawn)
i	-0.71	CCC1CCCCN1CCCNC(=O)CNC(=O)c1nn(-c2ccc(OC)c(Cl)c2)c(=O)c2ccccc12 (stereo not drawn)
i	0.11	COC(=O)COc1ccc(C2NC(=O)NC(C)=C2C(=O)NCc2ccccc2)cc1OC (stereo not drawn)
i	-0.97	Cc1ccc(C2=NS(=O)(=O)N(C)C(C(=O)Nc3cc(C)n(CC(=O)N4CCCCC4)n3)=C2)cc1
i	4.7	CN(C)c1ccc(/C=C2\C(=N)N3C(=NC2=O)Sc2cc(S(C)(=O)=O)ccc23)cc1
i	-0.45	CC(NS(=O)(=O)c1ccc2c(c1)C(C)(C)C(=O)N2C)c1ccccc1 (stereo not drawn)
i	0.26	Cc1ccc(S(=O)(=O)Nc2ccnc3ccccc23)cc1
i	1.6	Cc1cc(OC(=O)c2ccc(Cl)cc2Cl)c([N+](=O)[O-])c(=O)[nH]1

The listing, previewed entries included:
KCNQ2 block	KCNQ2 block baseline	Molecule
i	-1.1	CCOc1cc2[nH]c(=S)n(Cc3ccc(C(=O)O)cc3)c(=O)c2cc1OCC
i	-1.4	COc1ccc(/C=N/NC(=O)c2cc(OC)c(OC)c(OC)c2)cc1CN1CCc2cc(OC)c(OC)cc2C1C (stereo not drawn)
i	-0.01	CCOC(=O)c1c(C)[nH]c(C(=O)COC(=O)c2[nH]c(C)c(C(C)=O)c2C)c1C
i	-0.02	O=C(CCC1CCCN(Cc2ccc3c(c2)CCO3)C1)NCc1ccc(F)c(F)c1 (stereo not drawn)
i	-2.4	C(CCCN1CCCCC1)CCN1CCCCC1
i	-1.5	O=C(C1=C(O)C(=O)N(CCN2CCOCC2)C1c1cccc([N+](=O)[O-])c1)c1cccs1 (stereo not drawn)
i	-0.71	CCC1CCCCN1CCCNC(=O)CNC(=O)c1nn(-c2ccc(OC)c(Cl)c2)c(=O)c2ccccc12 (stereo not drawn)
i	0.11	COC(=O)COc1ccc(C2NC(=O)NC(C)=C2C(=O)NCc2ccccc2)cc1OC (stereo not drawn)
i	-0.97	Cc1ccc(C2=NS(=O)(=O)N(C)C(C(=O)Nc3cc(C)n(CC(=O)N4CCCCC4)n3)=C2)cc1
i	4.7	CN(C)c1ccc(/C=C2\C(=N)N3C(=NC2=O)Sc2cc(S(C)(=O)=O)ccc23)cc1
i	-0.45	CC(NS(=O)(=O)c1ccc2c(c1)C(C)(C)C(=O)N2C)c1ccccc1 (stereo not drawn)
i	0.26	Cc1ccc(S(=O)(=O)Nc2ccnc3ccccc23)cc1
i	1.6	Cc1cc(OC(=O)c2ccc(Cl)cc2Cl)c([N+](=O)[O-])c(=O)[nH]1
i	-2.5	Cc1ccc(S(=O)(=O)NCCSc2ncccn2)cc1
i	-0.31	C/C(=N\NC(=O)c1c(Cl)cnn1C)c1cccc(NC(=O)c2ccc(C)cc2)c1

Later entries:
KCNQ2 block	KCNQ2 block baseline	Molecule
i	0.66	O=C(NCc1ccco1)C1(c2ccc(Br)cc2)CCCC1
i	-0.52	Cc1ccc(-c2nc(COC(=O)c3c(C)noc3C)cs2)cc1
i	-0.92	Nc1nnc(SCC(=O)NC2CCCCC2)n1-c1ccccc1
i	-1.7	COC(=O)c1ccc(NC(=O)COc2coc(CN3CCc4ccccc43)cc2=O)cc1
i	1.8	CN(CC(=O)Nc1cccc(F)c1)C(=O)c1ccc(N2CCCCC2)c([N+](=O)[O-])c1
i	0.76	CCCCCC1CC(CC(=O)Nc2nncs2)C(=O)O1 (stereo not drawn)
i	-0.51	O=C(CN(Cc1ccccc1)C(=O)c1cccc([N+](=O)[O-])c1)Nc1c(Cl)cc(Cl)cc1Cl
i	-1.8	O=C(C[n+]1ccccc1)N/N=C/c1cc(Br)cc(Br)c1O
i	1.1	O=S(=O)(c1ccc(Cl)cc1)N1CCC2(CC1)CO2
i	-0.09	Cc1nn(-c2ccccc2)c(C)c1/C=N/NC(=O)c1cc(-c2ccc(Br)s2)[nH]n1
i	3.4	COc1ccc(S(=O)(=O)N2CCN(c3ccccc3OC)CC2)cc1
i	-1.7	COc1ccccc1OC(C)C(=O)Nc1ccccc1C(=O)NCC1CCCO1 (stereo not drawn)
i	-1.6	Cc1ccc(-n2cc(CNCCc3ncc(C)[nH]3)c(-c3ccc(F)cc3)n2)cc1
i	1	OC(COc1ccc(Cl)cc1)CN1CCC(Cc2ccccc2)CC1 (stereo not drawn)
i	0.51	O=C(O)c1c2c(nc3ccc(S(=O)(=O)N4CCC(C(=O)NC5CCCC5)CC4)cc13)CCCCC2

Additional records follow:
KCNQ2 block	KCNQ2 block baseline	Molecule
i	-0.1	FC(F)(F)c1nnc2c(Sc3ccccn3)nc3ccccc3n12
i	0.08	CCN(CCNC(=O)C1CCCN(S(=O)(=O)c2cnc[nH]2)C1)c1ccccc1 (stereo not drawn)
i	-1.9	CCc1ccccc1Nc1nc2ccccc2[nH]1
i	-0.27	C/C(CCc1ccc2c(c1)OCO2)=N\N=C1\NC(=O)CC(C(=O)Nc2ccccc2F)S1 (stereo not drawn)
i	0.33	O=c1oc2c(CN3CCOCC3)c(O)ccc2c2ccccc12
i	1.5	O=C(NCCCn1ccnc1)/C(=C/c1ccc(F)cc1)NC(=O)c1ccccc1
i	-0.04	COc1ccc(NC(=O)CS(=O)c2ccc(Br)cc2)cc1 (stereo not drawn)
-8.2*	-0.45*	Oc1ccccc1-c1nc(NCCN2CCOCC2)c2ccccc2n1
i	1	COc1ccc(S(=O)(=O)n2nc(-n3c(C)ccc3C)c3c(F)cccc32)cc1OC
i	-0.57	Cc1ccc2c(C(=O)N3CCN(c4ccccc4)CC3)cc(-c3cccnc3)nc2c1C
i	3.5	CC(CCc1ccc(O)cc1)NCCC(c1ccccc1)c1ccccc1 (stereo not drawn)
i	2.4	O=C1C(=O)N(Cc2ccncc2)C(c2cccc(O)c2)/C1=C(\O)c1ccc2c(c1)OCCO2 (stereo not drawn)
i	0.33	O=C(CNC(=S)N(CCCN1CCOCC1)Cc1cccs1)NC1CCCC1
i	3.1	CCN1CCN(C(=O)c2cc(COc3c(C)cccc3C)on2)CC1
i	0.39	COc1ccc(-c2ccccc2NC(=O)C2CCCN(Cc3ccco3)C2)cc1 (stereo not drawn)

Next part:
KCNQ2 block	KCNQ2 block baseline	Molecule
i	0.03	COc1ccc(CCNC2CC(=O)N(C3CCCCC3)C2=O)cc1OC (stereo not drawn)
i	0.16	CS(=O)(=O)N(CC(=O)Nc1ccccc1C(=O)N1CCOCC1)c1ccc(Cl)cc1
i	0.29	Cc1ccccc1-c1nn[nH]n1
i	-0.57	CCN1CCN(c2cc3nc(C)n(Cc4ccccc4)c(=O)c3cc2NC(=O)c2ccccc2F)CC1
i	0.33	O=C(c1ccc(Cl)cc1)N1CCC(O)(CSc2ccc(Cl)cc2Cl)CC1
i	3.8	Nn1c(SCc2ccc(Br)cc2)nnc1-c1ccncc1
i	2.6	CCOc1cc(/C=C2\SC(=S)N(C(C(=O)O)c3ccccc3)C2=O)ccc1O (stereo not drawn)
i	-0.95	O=C(C[n+]1cc(-c2ccccc2)n2c1CCC2)Nc1nc(-c2ccc(F)cc2)cs1
i	-1.7	CCOc1ccc(C(Nc2ccc(C)cc2)P2(=O)OCCC(C)O2)cc1 (stereo not drawn)
i	-1.4	O=C1NN(c2ccccc2)C(=O)/C1=C\c1cccc(OC(=O)c2cccs2)c1
i	-1.1	CC1CCCCN1C(=O)Cn1c(=O)n(C2CCCCC2)c(=O)c2ccccc21 (stereo not drawn)
i	0.66	CCc1ccc(NS(=O)(=O)c2cc3c4c(c2)CCN4C(=O)CC3)cc1
i	-0.03	COc1cc(CCC(=O)OCC(=O)Nc2ccccc2OC(F)F)cc(OC)c1OC
i	-1.2	CC1(C)CC(=O)C(C=NCCN2CCN(CCCCS(=O)(=O)O)CC2)=C(O)C1
i	-0.06	CC[C@@H]1CC=C[C@H]2[C@H]1C(=O)N(Cc1ccccc1)[C@H]2c1ccc(OC)c(Cl)c1

The listing continues:
KCNQ2 block	KCNQ2 block baseline	Molecule
i	1.2	CC(NC(=O)c1cccnc1)c1ccc2c(c1)OCO2 (stereo not drawn)
i	-0.37	Cc1ccc(NC(=O)C2(c3ccccc3)CCCC2)nc1
i	-1	O=C(COc1ccccc1)NCc1ccc2c(c1)OCO2
i	8	Cc1ccc(-c2nn(-c3ccccc3)cc2/C=C2\SC(=S)N(CCCCCC(=O)O)C2=O)o1
i	0.96	CC(CC(C)C(=O)N1CCOCCN(C(=O)C(C)CC(C)C(=O)O)CCOCC1)C(=O)O (stereo not drawn)
i	-1.3	O=C(NC1CCCCCC1)c1ccc(S(=O)(=O)NCc2ccco2)cc1
i	0.06	O=C(CC1C(=O)NCCN1Cc1c(F)cccc1Cl)NCCc1ccccn1 (stereo not drawn)
i	-0.01	O=C(CCn1nnc2ccccc21)Nc1nnc(-c2ccccc2F)s1
i	-0.71	CCn1c(/C=C2\C(=O)N(C)c3ccccc32)nc2ccccc2c1=O
i	1.1	CCOc1ccc(S(=O)(=O)n2cnc3cc(C)c(C)cc32)cc1
i	0.69	C[C@H](NC(=O)c1ccco1)C(=O)NCCc1ccc(S(N)(=O)=O)cc1
-6.8*	2.4*	COc1ccccc1CNC(=O)CSC1=NCCS1
i	0.3	Cc1nn(Cc2ccccc2Cl)c(Cl)c1C(=O)NCCc1ccccc1
i	-1.3	CCOCCCNC(=O)CN1C(=O)/C(=C/c2ccccc2C)Sc2ccccc21
i	-0.06	C#CCOCCOCCOCCNc1nc(N2CCN(C(=O)[C@H](CCCCN)n3cc([C@@H](N)CC(C)C)nn3)CC2)nc(N2CCN(C(=O)[C@H](Cc3ccc(O)cc3)n3cc([C@@H](N)CC(C)C)nn3)CC2)n1

Next section.
KCNQ2 block	KCNQ2 block baseline	Molecule
i	-0.03	COc1ccc(CCCC(=O)O)c(C)c1
i	-1.4	CC(=O)Nc1ccc(S(=O)(=O)N2CN(c3ccc(C)cc3)c3nc4ccccc4nc32)cc1
i	-0.53	Cc1nnsc1C(=O)N1CCCC(Nc2ccc(F)c(F)c2)C1 (stereo not drawn)
i	0.04	C=CCc1cc(C=O)cc(OC)c1OCc1ccc(C(=O)O)cc1
i	-0.48	N=c1c[n+](-c2ccc(Cl)cc2)[n-]o1
i	-1.6	CNC(=O)/C(=C/c1ccc2c(c1)OCO2)NC(=O)c1ccc(Br)cc1
i	1.1	Cc1ccc(N2C(=O)S/C(=C/c3cn(C)c4ccccc34)C2=O)cc1
i	-0.78	CCc1cccc(NC(=O)Cc2ccc([N+](=O)[O-])cc2)c1
i	-0.4	CCn1c(SCC(=O)N/N=C/C=C/c2ccco2)nnc1-c1ccc(OC)cc1
i	-1.1	O=C(NC(Cc1c[nH]c2ccccc12)C(=O)O)c1ccccc1 (stereo not drawn)
i	0.24	CC(NCc1ccc(S(N)(=O)=O)cc1)C(=O)Nc1ccc([N+](=O)[O-])cc1Cl (stereo not drawn)
-6.6*	0.39*	CCN(CC)S(=O)(=O)c1ccc(N2CCOCC2)c(NC(=O)C2COc3ccccc3O2)c1 (stereo not drawn)
i	-1.9	N#CC(CO)(Cc1ccc(OC(F)F)cc1)c1nc2ccccc2[nH]1 (stereo not drawn)
i	-1.4	CSc1nc2nccc(/C=C\c3ccccc3)n2n1
i	1.9	CN(C)/C=C/c1onc(-c2c(F)cccc2Cl)c1C#N

(further entries)
KCNQ2 block	KCNQ2 block baseline	Molecule
i	0.44	CCOC(=O)c1c(C)c(C(=O)OCC)n(C)c1C
i	-1.1	COc1ccc(NS(=O)(=O)c2cc3c(cc2C)N(C(C)=O)CCO3)c(OC)c1
i	-0.96	Cc1cccc(NC(=S)N2CCC(c3nc4ccccc4s3)CC2)c1
i	0.27	Cc1ccc(CNc2cccnc2)cc1
i	0.69	COc1ccc(OC)c(NC(=O)C2CCCN2S(=O)(=O)c2cccc3nsnc23)c1 (stereo not drawn)
i	-0.12	O=C(NCc1ccccc1)c1onc(CS(=O)(=O)c2ccccn2)c1C(=O)NCc1ccccc1
i	-0.75	COc1ccc(/C=N/Nc2cc(N(C)C)nc(N(C)C)n2)cc1
i	0.08	O=C(NCCSc1ccccc1)c1cncc(Br)c1
i	0.3	CCCC(=O)Nc1nn(C)c2nc3c(C)cccc3cc12
i	0.09	CCC(C)/C(C)=N/NC(=O)C1COc2ccccc2O1 (stereo not drawn)
i	-1.5	COc1cccc(-c2nc(=S)c3c(o2)CCCC3)c1
i	-0.56	COc1cc(C(=O)Nc2cccc3cccnc23)cc(OC)c1OC
i	0.03	COc1ccccc1NC1=C(Cl)C(=O)N(c2ccccc2)C1=O
i	0.02	CCOc1ccc(C(C)(C)C)cc1S(=O)(=O)N1CCOCC1
i	-0.03	Cc1ccccc1NC(=O)C(C)SCc1ccccc1 (stereo not drawn)

Continued:
KCNQ2 block	KCNQ2 block baseline	Molecule
-5.5*	0.24*	O=C(NC1CCCCC1)C1CC=CCC1C(=O)OCC(Cl)=C(Cl)Cl (stereo not drawn)
i	0.88	N#Cc1c(Nc2ccc(Cl)cc2)s[nH]c1=O
i	-1.4	CC(=O)c1cccc(NC(=O)NC2CCCc3ccccc32)c1 (stereo not drawn)
i	1.3	CCCOc1ccc(-c2nc(OCC)c3ccccc3n2)cc1
i	-0.85	CCOc1ccc(CNC(=O)c2ccc(Sc3ccc(C)cc3)c(NC(C)=O)c2)cc1
i	0.13	CCOc1ccc2c(c1)C(N(CCN1CCOCC1)C(=O)Nc1ccccc1)CC(C)(C)O2 (stereo not drawn)

Bioassay records as filed in PubChem BioAssay.
